Autofluor counter: compound fluorescence in toxin protease inhibitor counterscreen | 360,000 compounds, 3.1% hits | AID 624483 | fluorescence intensity (concentration not given with the values) | compound autofluorescence counterscreen, microsphere flow cytometry; hits give high values;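 active = at least 3 SD above the mean of all compounds, about 16000 in these data; inconclusive = too few beads counted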;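 also: 100 nL of 1 mM stock went into each well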
Sa RN4220 lethal: growth inhibition of S. aureus RN4220, primary screen, OD600; 16 h; inhibition, % (concentration not given with the values); 330,000 compounds, 0.33% hits; AID 1259311, 2017;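 active = z-score of -3 or lower and OD600 up to 0.18 on both plates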;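 also: plate controls were untreated cells for no effect and reference antibiotic for full effect; stock transfer was 100 nL into about 80 µL; one replicate is shown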
ugtP null kill: growth inhibition of ugtP-null S. aureus, primary screen, RN4220 ugtP deletion, OD600; growth inhibition, % (concentration not given with the values); 330,000 compounds, 0.54% hits; 16 h; some inactives read as strong as hits;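 active = z-score under -3 and OD600 up to 0.15 on both plates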;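 also: plate controls were untreated wells for no effect and antibiotic for full effect; wells of about 80 µL received 100 nL stock; the first replicate is given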
Mtb hypoxia rep: PubChem AID 1159583 | M. tuberculosis hypoxia-regulated fluorescent reporter, fluorescence | fluorescence inhibition, % (no concentration beside the values) | 300,000 compounds, 0.1% hits;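 active = 35 to 45% if threefold the growth effect, above 45% if 1.5-fold the growth effect; inactive = the rest, general growth blockers included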;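 also: wells of about 50 µL received 100 nL stock; 0% = vehicle wells and 100% = reference inhibitor wells; whole bacteria with a GFP reporter of the hypoxia response; strong numbers were not always called active; many hits fall short of the cut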
PrP 5UTR inh: inhibition of PrP 5' UTR reporter expression; cell-based PrP 5' UTR mRNA reporter, plate reader; inhibition, % (no concentration beside the values); 340,000 compounds, 0.35% hits;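 active = every replicate at 50% or more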;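 also: 0 = median of the neutral control wells; tested in H4 reporter cells; numbers are from one replicate; inactives centre near -14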
BJeLR viability: MLPCN primary cell-based screen for lethality selective to Ras in HRASV12 cells | inhibition, % (concentration not given with the values) | BJeLR (HRASV12) viability, CellTiter-Glo ATP luminescence, 48 h; reference of the scale not given here | 300,000 compounds, 0.17% hits;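 active = replicate mean above 50%; inconclusive = above 50% but judged a plate artefact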;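 also: 50 nL library stock added to about 25 µL; numbers are from one replicate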
Mtb hypoxia rep growth: further read-out of Mtb hypoxia rep, marked with its call; growth inhibition, %; measured here: M. tuberculosis growth (absorbance);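 0% = vehicle and 100% = reference antibiotic; read after six days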
Active calls of the source: *; ? = inconclusive; . = no result given.

Each structure is followed by: Autofluor counter, Sa RN4220 lethal, ugtP null kill, Mtb hypoxia rep, Mtb hypoxia rep growth, PrP 5UTR inh, BJeLR viability
COC(=O)c1ccc(CSc2ncn[nH]2)o1
    20355*, 1.8, -9, 7, 10, -14, -5
COC(=O)C1=C(c2cccc(OC)c2OC)C[C@@H]2CC[C@H]1N2C(=O)NCCNC(C)=O
    3896, ., ., ., ., -21, -13
CC(C)N=C1NN=C(c2ccc(Cl)c(Cl)c2)CS1
    4297, 4.0, 1, -4, 17, -53, -2
Cc1ccc2nc(NC(=O)c3ccccc3F)sc2c1
    3297, 0.1, 4, 6, 8, -16, 4
O=C(Nc1ccc2sc3ccccc3c(=O)c2c1)c1ccccc1Cl
    2542, 4.3, -10, ., ., -77, -9
Fc1cccc(-c2cc3nc4c(c(N5CCC6(CC5)OCCO6)n3n2)CCCC4)c1
    10026, 1.2, 4, -2, -2, -33, -7
CCOC(=O)C1(Cc2cccc(OC)c2)CCCN(Cc2cc(OC)c(O)c(OC)c2)C1 (configuration not stated)
    3513, -2.2, -5, -11, 4, -26, -3
COC(=O)c1ccc(NC(=O)C(=O)N2CCN(C(=S)Nc3ccccc3OC)CC2)cc1
    2074, 2.7, -4, -1, 4, -19, 8
CC(=O)Nc1cccc(NC(=O)c2ccc3c(c2)CCN3S(C)(=O)=O)c1
    3078, 1.2, 4, 2, 1, -3, 7
O=C(CSc1nc(=O)n2ccccc2n1)OCc1ccccc1
    ?, 4.7, 1, 3, 0, -10, 0
CN(C)S(=O)(=O)c1ccc(Nc2nc(C3CC3)nc3c2nnn3Cc2ccccc2Cl)cc1
    2639, 7.1, -2, -1, 3, -2, -13
CC1CCN(c2c(NCC3CCC(C(=O)NCCc4ccccc4)CC3)c(=O)c2=O)CC1 (configuration not stated)
    4183, 7.4, 0, -7, 2, -6, 2
CCn1c(CN2CCN(c3cccc(C)c3C)CC2)n[nH]c1=S
    2471, 5.1, 0, 4, 6, -9, -1
CN1C(=S)SC(/[N+]([O-])=C\c2cccs2)C1(C)C (configuration not stated)
    3407, 4.6, 8, ., ., -24, -3
O=C(NN=Cc1c[nH]c2ccccc12)c1ccc(Cl)cc1
    ., 4.0, 0, 2, 2, ., .
Cc1nc2sc(C(=O)Nc3ccccc3)c(N)c2c(C)c1[N+](=O)[O-]
    4114, 4.3, 0, -4, 7, -111, 2
Cc1ccc(C(=O)Nc2c(-c3cccs3)nc3cc(C)ccn23)cc1
    9671, 16, 5, 5, 11, -21, -5
Cc1cc(=O)oc2cc(OCC(O)CN3CCN(c4ccccc4)CC3)ccc12 (configuration not stated)
    3441, 0.1, -1, ., ., -12, 0
COc1ccc(CNC(=O)C2COc3ccccc3O2)cc1 (configuration not stated)
    3583, -1.4, 7, ., ., -25, -7
COC(=O)CS(=O)(=O)c1cc([N+](=O)[O-])ccc1NC(=O)OC
    4345, 4.4, 4, 0, 0, 7, 7
COC(=O)c1ccc(C)c(-n2c(=O)n(Cc3ccccc3)c(=O)c3[nH]cnc32)c1
    3506, 0.9, 0, -8, -1, -6, 0
Cc1cc(=O)oc2cc(OCCC[n+]3ccccc3)ccc12
    3099, 0.9, 2, 5, 15, -12, -3
Cc1ccc(C(=O)Oc2cccc(NC(=O)c3ccco3)c2)cc1S(=O)(=O)N1CCC(C)CC1
    9902, -1.0, 5, 5, 5, -25, 0
CCn1c(COc2ccccc2C)nnc1SCC(=O)CC(=O)Nc1ccccc1OC
    5572, 3.0, 4, 8, -1, -22, 4
COc1cc([N+](=O)[O-])ccc1NC(=O)Cn1ccsc1=N
    4237, 2.5, -4, 0, 10, -23, -3
CCCc1cc(=O)[nH]c(SCC(=O)N(CCC#N)c2ccc3c(c2)OCCO3)n1
    7247, -1.4, -2, -8, -3, -22, .
COC(=O)CN(C)C1CC(=O)N(c2ccc(Cl)cc2)C1=O (configuration not stated)
    22599*, -1.8, -5, -6, 3, -11, 3
O=C(Nc1ccccc1)ON=Cc1ccccc1Cl
    ., 17, -8, 8, 4, ., .
CC(=O)N1CCN(CCN=CC2=C(O)CC(c3ccco3)CC2=O)CC1 (configuration not stated)
    3194, 6.3, 15, 8, -4, -15, -17
COc1cccc(CC(NC(C)=O)C(=O)NC2CCN(S(=O)(=O)c3ccc(NC(C)=O)cc3)CC2)c1 (configuration not stated)
    3979, 3.7, 2, -1, 4, -4, -4
CC(=NNC(=O)c1ccccc1)c1ccc(-n2ccnc2)cc1
    ., 1.7, 0, 14, 5, ., .
O=C1/C(=C/c2ccc(O)cc2)CCc2ccc([N+](=O)[O-])cc21
    2380, 1.9, 0, 7, 4, -13, -6
O=C(Cc1ccccc1)NCC(=O)N1CCCCCC1
    22214*, 7.9, 10, 17, 14, -8, -7
O=c1oc(-c2ccccc2)c(-c2ccccc2)c2ccccc12
    2935, 7.8, 11, 19, 9, 2, .
COc1cccc(CN2CCC(n3nccc3NC(=O)CCOc3ccccc3)CC2)c1
    6107, 1.8, 7, 3, 2, -12, -9
CCOc1ccc(CC(=O)Nc2ccc(-c3ccc4nnc(C)n4n3)cc2)cc1
    4428, 1.9, 7, 8, 6, -31, 4
CCC(C)NC(=O)CSc1nnc(-c2ccncc2)n1-c1ccc(OC)cc1 (configuration not stated)
    4198, -0.1, 2, 8, 3, 2, 3
CCOC(=O)c1cccc(NC(=O)CS(=O)(=O)Cc2nc(-c3cccc(OC)c3)oc2C)c1
    11417, -3.5, -20, -18, 8, -23, -4
CCCCOc1ccc(C(=O)NCC(=O)OCC(=O)c2c(N)n(C)c(=O)n(C)c2=O)cc1
    3717, 2.9, 7, 9, 12, -21, .
COCCC(=O)N1CCC(Oc2ccc(C(=O)N3CCCC(CCCO)C3)cc2)CC1 (configuration not stated)
    5005, -1.4, -2, -3, 9, -1, -6
COc1ccc(C(=O)C(/C=N/O)=N/Nc2ccc(F)cc2)cc1
    2139, ., ., ., ., -27, -24
CSc1ccc(CN2CCN(Cc3ccccc3Cl)CC2)cc1
    4529, 2.1, 29, 14, 2, -49, 5
C/C(=N\NC(=S)Nc1cccc(C)c1)c1ccccc1
    4442, ., ., ., ., -35, -6
CCCCC(=O)N/N=C(\C)CC(=O)Nc1cc(Cl)ccc1OC
    2449, ., ., ., ., -10, -12
O=C(Cc1ccc(-n2cccc2)cc1)N1CCc2ccccc21
    3072, -0.5, -2, ., ., 5, -4
CN(c1ccc(C(=O)NCCSC(C)(C)C)cc1)S(C)(=O)=O
    2189, 1.1, 5, ., ., -21, -3
COc1ccc(CNC(=O)c2cc(S(=O)(=O)N3CCCC3)cn2C)cc1
    5239, -12, -3, 8, 5, -22, 6
COc1cccc(C(=O)NNC(=O)c2ccccc2Br)c1
    16663*, 3.8, 4, 1, -5, -28, .
Cc1ccc(CC(=O)N2CCN(c3ccccn3)CC2)cc1
    3476, 1.0, 11, ., ., -9, 1
Cc1occc1C(=O)N/N=C/C1=C(N2CCOCC2)C(=C/c2ccc(Cl)cc2Cl)/CC1
    3857, 4.9, -2, 7, 1, -28, .
CN(Cc1ccccc1)C(=O)C1CCN(S(=O)(=O)c2cc([N+](=O)[O-])ccc2Cl)CC1
    1917, 6.4, 0, 9, 26, -6, -5
COc1ccc(S(=O)(=O)N2CCOC2CNC(=O)C(=O)NCc2ccccc2OC)cc1 (configuration not stated)
    5797, -1.5, -4, -13, -12, -1, -2
O=C(CSc1n[nH]c(=O)n1-c1cccnc1)N1CCOCC1
    ., 2.9, 11, 11, 3, ., 2
O=C(CN1CCC(C(=O)c2cccc(Cl)c2)CC1)Nc1cccc(C(=O)O)c1
    4058, 3.5, -2, 1, -1, -35, -3
Cc1cccc(CN2CCN(Cc3cnn(-c4ccccc4F)c3)CC2CCO)n1 (configuration not stated)
    3948, 3.6, -4, 7, -3, -2, 2
CN(Cc1cccc(F)c1)CC(O)COCc1ccccc1Cl (configuration not stated)
    3901, 1.8, -9, -5, 5, -3, -1
COc1ccc(N2CCC(CNC(=S)Nc3c(C)cccc3C)C2)cc1 (configuration not stated)
    4513, -2.3, 6, 6, 7, -8, 1
CC(C)=CCc1c2c(c3occ(-c4ccc(O)cc4)c(=O)c3c1O)C=CC(C)(C)O2
    4988, 99*, 100*, ., ., -26, 1
CN(CC(=O)NCc1ccccc1)Cc1cccc(F)c1
    3362, -3.0, 17, 12, 11, -19, -3
C#CCOCCOCCOCCNc1nc(N2CCN(C(=O)C(CC(N)=O)n3cc(C(N)C(C)CC)nn3)CC2)nc(N2CCN(C(=O)C(CC(N)=O)n3cc(C(N)C(C)CC)nn3)CC2)n1 (configuration not stated)
    ., 5.1, 3, 14, 8, ., .

4 compounds picked at random from those above:
Each structure is followed by: Autofluor counter, Sa RN4220 lethal, ugtP null kill, Mtb hypoxia rep, Mtb hypoxia rep growth, PrP 5UTR inh, BJeLR viability
Cc1cccc(CN2CCN(Cc3cnn(-c4ccccc4F)c3)CC2CCO)n1 (configuration not stated)
    3948, 3.6, -4, 7, -3, -2, 2
Fc1cccc(-c2cc3nc4c(c(N5CCC6(CC5)OCCO6)n3n2)CCCC4)c1
    10026, 1.2, 4, -2, -2, -33, -7
Cc1ccc2nc(NC(=O)c3ccccc3F)sc2c1
    3297, 0.1, 4, 6, 8, -16, 4
CN(Cc1ccccc1)C(=O)C1CCN(S(=O)(=O)c2cc([N+](=O)[O-])ccc2Cl)CC1
    1917, 6.4, 0, 9, 26, -6, -5

Continuation.
Each structure is followed by: Autofluor counter, Sa RN4220 lethal, ugtP null kill, Mtb hypoxia rep, Mtb hypoxia rep growth, PrP 5UTR inh, BJeLR viability
Cc1ccc(-c2c(C(=O)NN=CC3CC=CCC3)nnn2-c2nonc2N)cc1 (configuration not stated)
    ., 1.1, 1, 1, 2, ., .
COc1cc(C=NNC(N)=S)cc(Br)c1OCc1ccccc1F
    ., 12, -12, ., ., ., .
COc1cccc(NC(=O)N(CCCN2CCOCC2)C(C)c2cc3cccc(OC)c3o2)c1 (configuration not stated)
    2656, -10, -7, 6, 11, -16, 7
CC1CCCCN1C(=O)CN1C(=O)c2ccccc2S1(=O)=O (configuration not stated)
    4414, 1.0, 2, 1, 12, -41, 9
Cc1noc(C)c1COc1ccc(C(=O)OCc2nnc(-c3ccc(Cl)cc3)o2)cc1
    2970, 5.7, -5, ., ., -14, 6
COc1ccc(CCNC(=O)CSc2nnnn2-c2ccccc2OC)cc1OC
    4226, 2.6, -1, -13, 6, 6, 9
COCCSc1nc2c(c(=O)[nH]c(=O)n2C)n1CCCc1ccccc1
    3228, 0.4, -3, 13, 8, 5, 1
Cc1cc(Cl)ccc1OCC(=O)O
    5197, 2.6, -3, 24, 8, -13, -23
Cc1ccc(C2NC(c3ccc(C)cc3)C(C)C(=O)C2C)cc1 (configuration not stated)
    6123, -6.4, 52, 12, 2, -25, -4
CCNc1nc(NC(C)C)nc(N(C#N)CCOc2ccccc2)n1
    4310, -4.9, 7, ., ., 0, 4
COC(=O)c1[nH]c(C)c(/C(O)=C2\C(=O)C(=O)N(CCCN3CCOCC3)C2c2ccccn2)c1C (configuration not stated)
    4893, 1.1, 2, ., ., -10, -6
Cc1ccc(C)c(S(=O)(=O)N2CCN(C(=O)CCc3nc4ccccc4c(=O)[nH]3)CC2)c1
    ?, 3.1, 0, -7, 7, -16, -4
O=C(NCCc1ccccc1)C(=O)NCC1CCNCC1
    ., 2.2, 5, -2, 7, ., 2
CCOC(=O)Cn1nc(C)c(NC(=O)COc2cccc(Cl)c2)c1C
    4209, -0.5, -3, -6, 1, -19, .
O=S(=O)(NCc1ccccn1)c1ccc2ccccc2c1
    3033, 3.8, 15, 10, 1, -5, -1
Cc1cc(NC(=O)COc2ccccc2)ccc1Cl
    ., -0.7, 5, 7, -9, -46, 2
O=C(c1cccs1)N(Cc1ccc(Cl)cc1)C1CCS(=O)(=O)C1 (configuration not stated)
    5091, 0.1, -3, -7, 1, 3, 5
O=C(CNC(=O)c1ccccc1F)N/N=C/c1cccs1
    3171, ., ., ., ., -21, 1
CC(=O)N1c2ccc(S(=O)(=O)N3CCC(C(=O)Nc4cccc(C)n4)CC3)cc2CC1C (configuration not stated)
    4265, 4.8, 9, 3, -7, -2, 5
Cc1ccc(-n2nc3c(=O)n(CCCC(=O)NCc4ccccc4F)nc(C)c3c2C)cc1
    5272, -1.7, 3, -4, 0, -7, 4
CCc1ccc(N(C(=O)CNC(=O)c2ccco2)C(C(=O)NCC2CCCO2)c2ccccc2)cc1 (configuration not stated)
    2060, 4.9, 3, 4, -1, -12, -3
O=C(NC(Cc1ccccc1)C(=O)O)/C(=C/c1ccc(Br)cc1)NC(=O)c1ccc(Br)o1 (configuration not stated)
    ?, 3.7, 12, 6, 0, -17, 1
